Bioassay records (PubChem BioAssay)
RecA intein inh: Mtb RecA intein splicing inhibitors, primary screen, biochemical, fluorescence, HTS; Protein RecA (Mycobacterium tuberculosis (strain ATCC 25618 / H37Rv)), P9WHJ3; cell-free RecA intein splicing; inhibition, %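 (about 9 µM by stock and volumes)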; 290,000 compounds, 0.75% hits; AID 2221, 2009; in the data active means inhibition above about 30%; inconclusive means no clear call, values can overlap the other calls;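 further: 0% = vehicle wells and 100% = reference inhibitor control wells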
Target sequence (P9WHJ3 whole entry, looked up): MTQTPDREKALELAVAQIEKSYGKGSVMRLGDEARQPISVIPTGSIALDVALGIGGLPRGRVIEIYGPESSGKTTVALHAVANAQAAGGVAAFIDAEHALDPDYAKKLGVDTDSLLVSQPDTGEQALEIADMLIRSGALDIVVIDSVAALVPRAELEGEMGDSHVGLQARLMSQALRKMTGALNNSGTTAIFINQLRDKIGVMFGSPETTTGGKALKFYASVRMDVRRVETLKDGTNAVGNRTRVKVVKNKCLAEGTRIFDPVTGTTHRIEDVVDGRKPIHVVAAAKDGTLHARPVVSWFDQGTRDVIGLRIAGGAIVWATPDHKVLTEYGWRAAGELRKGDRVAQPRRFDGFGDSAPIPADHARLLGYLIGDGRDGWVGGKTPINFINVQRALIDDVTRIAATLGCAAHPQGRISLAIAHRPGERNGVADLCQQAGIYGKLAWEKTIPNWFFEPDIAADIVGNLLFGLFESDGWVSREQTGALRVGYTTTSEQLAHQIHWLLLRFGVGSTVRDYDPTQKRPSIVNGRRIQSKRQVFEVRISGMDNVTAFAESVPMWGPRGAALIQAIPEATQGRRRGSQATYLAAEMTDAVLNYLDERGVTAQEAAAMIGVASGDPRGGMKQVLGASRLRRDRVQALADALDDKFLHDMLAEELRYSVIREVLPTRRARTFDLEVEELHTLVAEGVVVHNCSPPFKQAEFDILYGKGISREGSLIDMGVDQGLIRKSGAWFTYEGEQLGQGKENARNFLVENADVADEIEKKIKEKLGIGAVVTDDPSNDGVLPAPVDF
Mtb H37Rv: M. tuberculosis H37Rv growth inhibitors, H37Rv strain (AID 1626). inhibition, % at 10 µM, or IC50 in µM where a hit was titrated. M. tuberculosis H37Rv growth inhibition; higher % means a stronger effect. 220,000 compounds, 0.95% hits;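 active means confirmed in a dose series; inconclusive means inhibition above 80% but not taken into the dose series; inactive means below 80% or under 30% at every dose of the series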;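 further: bacteria incubated seven days before Alamar blue readout; 0% = bacteria only wells and 100% = bacteria with antibiotic wells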
Arbovirus inh: antivirals against arbovirus infection, primary screen, cell-based, full library, 10K replicate subset; arbovirus infection cell-based antiviral screen; inhibition, % at 10 µM; 200,000 compounds, 0.37% hits; AID 1251, 2008;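 active means inhibition from about 30%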;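 further: bluetongue infection of BSR cells; cell survival read as ATP light after 72 h; 0% = infected wells without compound and 100% = uninfected wells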
YopH inh: YopH tyrosine phosphatase inhibitors, primary screen, biochemical, fluorescence Ex485/Em525. inhibition, %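 (about 10 µM by stock and volumes)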. 140,000 compounds, 0.16% hits;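 active means inhibition of 50% or more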;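 further: controls were vehicle for no effect and minimum signal wells for full effect; inactives centre near -20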
Mtb betalactam: beta-lactam sensitization of Mtb H37Rv, H37Rv; M. tuberculosis H37Rv growth with meropenem, percent inhibition; hits of this screen are not shown here; AID 434955, 2010; inhibition, % at 25 µM; 330,000 compounds, 0.27% hits;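 active means about 74% or more and at least 40 points above the plate without the antibiotic, then above 30% in a dose series; inconclusive means first-round hits that could not be retested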;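 further: growth measured after seven days incubation then overnight dye step; 0% = bacteria only wells and 100% = bacteria with antibiotic; twin plates without the antibiotic show which effects depend on it; some results filed as inactive read as strong as hits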
Starred values were filed as active, the others as inactive; ? = inconclusive; · = not tested or not shown; & = joins results of further samples.

SMILES	RecA intein inh	Mtb H37Rv	Arbovirus inh	YopH inh	Mtb betalactam
COc1cc(OC)c(NC(=O)C2CCN(S(=O)(=O)c3ccc4c(c3)CC(C)N4C(C)=O)CC2)cc1Cl (stereo not drawn)	-4.0	·	·	·	-4
Cc1cc2nnc(SCC(=O)NCC(c3ccccc3)N(C)C)n2c2ccccc12 (stereo not drawn)	-0.1	·	·	·	-11
Cc1cnc(NC(=O)Cc2ccccc2F)s1	-2.0	·	·	·	0
Cc1ccc(/C=N/NC(=O)c2cccnc2)s1	2.7	-8%	·	·	?
Cn1cc(C(=O)c2ccc(F)cc2)cc1-c1nc2ccccc2n1C	4.0	5%	1	1	60
Cc1cc(C)n(-c2nc(-c3cccc(Cl)c3)cs2)n1	8.3	9%	2	-35	98
O=C(c1ccc(NC2=NC3CS(=O)(=O)CC3S2)cc1)N1CCN(c2ccccc2)CC1 (stereo not drawn)	-3.4	·	·	·	-1
CC(C)(C)/C=N/NC(=O)C1CC1	0.7	2%	·	·	-2
Cc1ccc(S(=O)(=O)ON2C(=O)c3ccccc3C2=O)c(C)c1	·	1%	-5	-11	1
c1ccc2c(NCCCN3CCOCC3)c3ccccc3nc2c1	·	-3%	-26	·	6
CCCc1ccc2oc(C(=O)N3CCN(CCC(N)=O)CC3)c(C)c2c1	1.3	·	·	·	7
O=C1CN(C(=O)CC2c3ccccc3-c3ccccc32)CC(=O)N1	-4.2	-3%	5	-32	-1
COc1ccc(-c2nc(=S)c3ccc4ccccc4c3[nH]2)cc1	-3.1	7%	6	·	·
CCCCCCCCNC(=O)/C(C#N)=C/c1ccc(SC)cc1	14	6%	4	-26	3
CCC(C)N(C(=O)COC(=O)c1ccc(=O)n(Cc2ccccc2)n1)C1CCS(=O)(=O)C1 (stereo not drawn)	0.7	·	·	·	-5
CC(NC(=O)c1ccccc1F)C12CC3CC(CC(C3)C1)C2 (stereo not drawn)	6.3	·	·	·	41
CCOc1ccc(S(=O)(=O)NCC2CCCO2)cc1NC(=O)c1ccccc1F (stereo not drawn)	-2.3	·	·	·	1
O=C(CSc1nc2scc(-c3ccccc3)c2c(=O)[nH]1)NC1CCCCC1	0.0	-10%	-5	·	-5
O=C(c1cccc(Cl)c1)C1CCCN(C(=O)c2ccc3c(c2)OCO3)C1 (stereo not drawn)	-7.9	·	·	·	-5
CC(C)OC(=O)c1ccc(N2CCN(c3ccccc3F)CC2)nc1	6.5	·	·	·	12
O=C(N/N=C/c1ccc(O)cc1O)C(=O)N/N=C/c1ccc(O)cc1O	-4.6	·	·	·	3
CC(C)Oc1cccc(C(=O)N/N=C/c2coc3ccccc3c2=O)c1	4.5	·	·	·	0
CCC(=NCCCn1ccnc1)c1c(O)n(-c2ccc(OC)cc2)c(=O)[nH]c1=O	0.3	-9%	·	·	-6
Nc1nonc1C(=O)NCCNCc1ccccc1	-0.1	-1%	-1	-16	-9
O=c1[nH]c2ccccc2n2c(-c3ccncc3)nnc12	·	0%	1	-38	·
Further structures
SMILES	RecA intein inh	Mtb H37Rv	Arbovirus inh	YopH inh	Mtb betalactam
O=C(COc1ccc(F)cc1)N1CCCc2ccccc21	-3.2	·	·	·	-2
O=C(CN(CCc1ccccc1)C(=O)CN1C(=O)COc2ccccc21)NCc1ccco1	1.5	-5%	-3	-37	-4
N#CC1(c2ccccc2)CCC(=O)N1Cc1ccccc1 (stereo not drawn)	·	-13%	·	·	-9
Cc1ccc2cccc(OCc3cccc([N+](=O)[O-])c3)c2n1	4.9	·	·	·	52
Cc1nnc(NC(=O)CN2CCN(Cc3ccc(F)cc3Cl)CC2)s1	1.4	·	·	·	2
CCOc1ccc(CCNC(=O)CSc2cc(=O)n(CC)c3ccccc23)cc1OCC	2.3	5%	-3	-22	4
CCCCNC(=S)N/N=C/c1sccc1C	1.8	1%	-1	·	11
CCN(CC)CCCN(Cc1cc2cc(OC)ccc2[nH]c1=O)C(=O)Nc1ccc(F)cc1	-1.4	·	-25	-9	-27
COc1cccc(NC(=S)N(Cc2ccco2)C(C)c2ccco2)c1 (stereo not drawn)	1.2	1%	2	-25	-4
COc1ccc(C2Nc3ccccc3C(=O)N2c2ccccc2)cc1CSc1ccccn1 (stereo not drawn)	-0.5	2%	-12	-35	0
CC1=CC(=O)c2ccccc2C1=O	15	-10%	-44	22	-2&1
CCOC(=O)c1sc2nc(CC(=O)OC)nc(NCCN(CC)CC)c2c1C	-0.3	-6%	1	-11	-11
CCC(C)NC(=O)Cn1cnc2sc(C)c(S(=O)(=O)N3CCN(c4ncccn4)CC3)c2c1=O (stereo not drawn)	0.4	-4%	4	·	0
COc1ccc2ccccc2c1/C=N/N1C(=O)CSC1=S	-5.9	-8%	32*	·	-4
COCc1ccc(CN2CCCC(CCC(=O)NCc3ccc(C)o3)C2)o1 (stereo not drawn)	1.2	4%	4	·	-13
Clc1ccc(OCc2nn3c(-c4ccco4)nnc3s2)c(Cl)c1	-2.3	1%	-2	-35	0
O=C(CCC(=O)Nc1ccc(Br)cc1)N/N=C/c1ccc(F)cc1	-0.6	·	·	·	2
Cc1ccc(C2=NS(=O)(=O)N(C)C(C(=O)NCc3cccs3)=C2)cc1	-0.9	·	·	·	0
COc1ccc(-c2noc(CSc3nc4sc(C)c(C)c4c(=O)n3-c3ccccc3)n2)cc1	1.6	-4%	-17	-11	5
CCN(CC)CCCn1c2c(c(SCC(=O)Nc3ccc4c(c3)OCCO4)nc1=O)CCC2	-0.8	·	·	·	-3
COc1cccc(OC)c1C1=NC(C)(C)CO1	·	0%	·	·	1
Cc1csc2ncnc(NC3CCN(Cc4ccccc4)CC3)c12	0.9	7%	·	·	-3
O=C(Nc1cccnc1)c1cc([N+](=O)[O-])ccc1Cl	-0.3	4%	·	·	22
CCCc1c(C(=O)N/N=C(\C)c2ccc(O)cc2)nnn1-c1nonc1N	-1.4	·	·	·	-2
COc1ccccc1-c1cc(C(=O)N/N=C/c2sccc2C)c2ccccc2n1	0.9	12%	-13	-11	4

Overlap with the part before: 2 compounds, followed by the next part.
SMILES	RecA intein inh	Mtb H37Rv	Arbovirus inh	YopH inh	Mtb betalactam
CCCc1c(C(=O)N/N=C(\C)c2ccc(O)cc2)nnn1-c1nonc1N	-1.4	·	·	·	-2
COc1ccccc1-c1cc(C(=O)N/N=C/c2sccc2C)c2ccccc2n1	0.9	12%	-13	-11	4
CCOC(=O)C1=C(CSc2nccn2C)NC(=O)NC1c1ccc(OC)cc1 (stereo not drawn)	-1.7	-5%	10	-11	-5
COc1ccc2nc(NC(=O)CSc3nnc4n3C(C)(C)Cc3ccccc3-4)sc2c1	-0.1	-3%	-9	-42	2
CC(Oc1ccc2c(c1)oc(=O)c1ccccc12)C(=O)NCCN1CCOCC1 (stereo not drawn)	-1.8	·	·	·	4
CCC1(C)Cc2ccccc2-c2nc(NCCO)n(-c3ccccc3)c(=O)c21 (stereo not drawn)	1.8	-10%	2	-4	-19
Cc1sc2nc(-c3cccnc3)nc(Cl)c2c1-c1ccccc1	25	-3%	-11	-5	13
O=C(CN1CCN(C(c2ccccc2)c2ccccc2)CC1)Nc1ccc(N2CCOCC2)cc1	-4.3	0%	-2	·	9
CCCN(CCC)C(=O)c1cc2c(=O)[nH]c3ccc(C)cc3c2s1	0.4	8%	-13	·	14
COc1ccccc1NC(=O)CCCC(=O)OCC(=O)c1ccc(F)cc1	-0.9	·	·	·	3
CCCn1nnc(NC(=O)/C=C/c2ccccc2)n1	-2.5	0%	-7	·	-6
O=C(CCc1nnc(-c2ccc3c(c2)OCO3)o1)NC(c1cccnc1)C(F)(F)F (stereo not drawn)	0.0	-11%	1	·	2
Cc1cc(C)c(NC(=O)C(=O)NCc2ccco2)c(C)c1	-1.1	8%	-1	·	73
COC(=O)COc1ccc2cccc(-n3cnnn3)c2c1	-0.9	·	-4	·	-3
O=[N+]([O-])c1ccc(CNc2ccc(Cl)cc2)s1	5.0	·	·	·	2
O=C(Cc1ccc(Cl)cc1)Nc1ccc(S(=O)(=O)N2CCOCC2)cc1	-1.3	·	·	·	-7
CCc1ccccc1NS(=O)(=O)c1ccc(OC)c2ncccc12	1.1	·	·	·	0
O=C(Nc1ccc2ncccc2c1)c1ccccc1Cl	-1.5	-6%	-2	·	7
Brc1ccc2[nH]c3c(N4CCc5ccccc5C4)ncnc3c2c1	1.5	5%	-12	-8	99
COC(=O)c1ccc(NC(=O)Nc2ccc(OC)cc2)cc1	·	6%	3	·	6
Cc1cc(C(=O)N/N=C/c2ccc[nH]2)no1	0.6	12%	3	-11	-1
CCN1C(=O)CC(Sc2ccccc2C(=O)O)C1=O (stereo not drawn)	-3.7	-2%	5	-47	2
N[C@@H](Cc1ccc(O)cc1)c1nnc([C@H](CO)NC(=O)C2CCNCC2)o1	-1.5	-21%	5	·	-6
O=C(NC(=S)NCc1ccccc1)c1cccc(Cl)c1	8.0	·	·	·	1
Cc1nc(C#N)c(NCc2ccc3c(c2)OCO3)o1	-9.1	3%	-3	16	-6
CCOc1ccccc1N1CCN(C(=O)NCc2ccc(F)cc2)CC1	0.8	·	·	·	2
OCCC1CN(Cc2cccc(C(F)(F)F)c2)CCN1Cc1ccccc1 (stereo not drawn)	1.8	0%	1	·	-3
Following part
SMILES	RecA intein inh	Mtb H37Rv	Arbovirus inh	YopH inh	Mtb betalactam
CC(=O)NC(CSC(CC(=O)c1ccco1)c1ccc(C)cc1)C(=O)O (stereo not drawn)	2.7	6%	-3	·	64
C/C(=C\CNc1ncnc2nc[nH]c12)CO	-0.7	-1%	·	·	-1
O=C(CCCC(=O)N(CC(=O)NC1CCCC1)C1CCCC1)Nc1ccccn1	-1.6	0%	5	-37	-9
OCCNc1nc(Nc2ccc(O)cc2)nc2ccccc12	-3.2	7%	·	·	0
CC(C)N1CC(C(=O)Nc2ccc(F)c(Cl)c2)CC1=O (stereo not drawn)	2.2	·	·	·	-1
CCOC(=O)c1c(C)n(C)c2ccc(OC(=O)c3ccco3)cc12	3.2	6%	12	-2	32
CCCn1c(N2CCN(C(=O)NCc3ccccc3)CC2)nc2ccccc21	1.9	-13%	·	·	-4
CC1CN(S(=O)(=O)c2ccc(C(=O)Nc3nc(-c4cc5ccccc5o4)cs3)cc2)CC(C)O1 (stereo not drawn)	-7.0	-1%	-15	-5	-1
CCc1ccc(NC(=O)NCCN2CCc3ccccc3C2)cc1	·	5%	-4	9	-8
O=C(N/N=C/c1cccnc1)c1cccc(F)c1	1.8	·	·	·	-1
CCc1cccc(NC(=S)N(CCOC)C(C)c2ccco2)c1 (stereo not drawn)	6.0	-2%	·	·	-9
COc1ccc(C(=O)CN2C(=O)COc3ccccc32)cc1	1.7	-2%	-2	·	3
COc1ccc(NCc2nnc(SCC(=O)Nc3cc(C)cc(C)c3)o2)cc1	13	69%	-20	17	89
COc1cc(-c2cc(OC)c3c(C)oc(C)c3c(=O)c2)ccc1O	-0.8	-1%	-12	-41	10
Cc1ccc(C)c(NC(=O)C(=O)NCCc2c[nH]c3ccccc23)c1	0.7	·	0	·	6
Cc1c2cnn(CC(=O)NC3CCCC3)c(=O)c2c(C)n1Cc1ccccc1	-0.3	·	·	·	6

Molecules above with a thiophene ring, fused or not:
SMILES	RecA intein inh	Mtb H37Rv	Arbovirus inh	YopH inh	Mtb betalactam
Cc1ccc(/C=N/NC(=O)c2cccnc2)s1	2.7	-8%	·	·	?
O=C(CSc1nc2scc(-c3ccccc3)c2c(=O)[nH]1)NC1CCCCC1	0.0	-10%	-5	·	-5
CCCCNC(=S)N/N=C/c1sccc1C	1.8	1%	-1	·	11
CCOC(=O)c1sc2nc(CC(=O)OC)nc(NCCN(CC)CC)c2c1C	-0.3	-6%	1	-11	-11
CCC(C)NC(=O)Cn1cnc2sc(C)c(S(=O)(=O)N3CCN(c4ncccn4)CC3)c2c1=O (stereo not drawn)	0.4	-4%	4	·	0
Cc1ccc(C2=NS(=O)(=O)N(C)C(C(=O)NCc3cccs3)=C2)cc1	-0.9	·	·	·	0
COc1ccc(-c2noc(CSc3nc4sc(C)c(C)c4c(=O)n3-c3ccccc3)n2)cc1	1.6	-4%	-17	-11	5
Cc1csc2ncnc(NC3CCN(Cc4ccccc4)CC3)c12	0.9	7%	·	·	-3
COc1ccccc1-c1cc(C(=O)N/N=C/c2sccc2C)c2ccccc2n1	0.9	12%	-13	-11	4
Cc1sc2nc(-c3cccnc3)nc(Cl)c2c1-c1ccccc1	25	-3%	-11	-5	13
CCCN(CCC)C(=O)c1cc2c(=O)[nH]c3ccc(C)cc3c2s1	0.4	8%	-13	·	14
O=[N+]([O-])c1ccc(CNc2ccc(Cl)cc2)s1	5.0	·	·	·	2

An excerpt, so the mix of outcomes need not match the whole.
